Compound activity as filed in PubChem.
PrP UTR inh: suppresses PrP 5' UTR mRNA reporter expression | inhibition, % (no concentration beside the values) | 340,000 tested, 0.35% active | cell-based PrP 5' UTR mRNA reporter, plate reader;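 active = every replicate at 50% or more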;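 also: 0 = median of the neutral control wells; tested in H4 reporter cells; numbers are from one replicate; inactives centre near -14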
RN4220 kill: kills Staphylococcus aureus RN4220. S. aureus RN4220 growth, OD600, 16 h. inhibition, % (test concentration not listed). 330,000 tested, 0.33% active;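 active = z-score of -3 or lower and OD600 up to 0.18 on both plates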;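 also: plate controls were untreated cells for no effect and reference antibiotic for full effect; stock transfer was 100 nL into about 80 µL; one replicate is shown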
Mtb hypoxia inh: Mtb hypoxia fluorescent reporter inhibition; fluorescence inhibition, % (concentration not given with the values); 300,000 tested, 0.1% active; AID 1159583; M. tuberculosis hypoxia-regulated fluorescent reporter, fluorescence;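 active = 35 to 45% if threefold the growth effect, above 45% if 1.5-fold the growth effect; inactive = the rest, general growth blockers included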;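 also: wells of about 50 µL received 100 nL stock; 0% = vehicle wells and 100% = reference inhibitor wells; whole bacteria with a GFP reporter of the hypoxia response; strong numbers were not always called active; many hits fall short of the cut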
Bead autofluor: counter-screen for toxin protease inhibitors: compound fluorescence; fluorescence intensity (concentration not given with the values); 360,000 tested, 3.1% active; compound autofluorescence counterscreen, microsphere flow cytometry; stronger effect = higher value;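 active = at least 3 SD above the mean of all compounds, about 16000 in these data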;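 also: 100 nL of 1 mM stock went into each well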
ugtP null kill: growth inhibition of S. aureus ugtP deletion strain. S. aureus RN4220 ugtP deletion, OD600 growth, 16 h; some inactives read as strong as hits. growth inhibition, % (concentration not given with the values). 330,000 tested, 0.54% active;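 active = z-score under -3 and OD600 up to 0.15 on both plates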;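 also: plate controls were untreated wells for no effect and antibiotic for full effect; wells of about 80 µL received 100 nL stock; the first replicate is given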
BJeLR viability: kills HRASV12-expressing BJeLR cells; AID 1554; inhibition, % (concentration not given with the values); BJeLR (HRASV12) viability, CellTiter-Glo ATP luminescence, 48 h; reference of the scale not given here; 300,000 tested, 0.17% active;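 active = replicate mean above 50%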;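 also: 50 nL library stock added to about 25 µL; numbers are from one replicate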
Mtb hypoxia inh growth: recorded beside Mtb hypoxia inh, whose call it bears; growth inhibition, %; measured here: M. tuberculosis growth (absorbance);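 0% = vehicle and 100% = reference antibiotic; read after six days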
* marks the source's active call; other numbers are inactive results; · = not tested or not shown.

Every second line gives: BJeLR viability, Mtb hypoxia inh, PrP UTR inh, Bead autofluor, RN4220 kill, ugtP null kill, Mtb hypoxia inh growth
- CCOc1ccc(-c2nc3n(c(=O)c2C#N)CCS3)cc1
→ -6, 16, -5, 2722, 2.1, 10, 9
- COc1ccc(-c2nc3ccccc3n2OCC(=O)O)cc1
→ 7, 7, -26, 4585, 3.1, 2, 4
- CC(C)(C)c1cnnn1-c1ccc(/C=N/Nc2ccc([N+](=O)[O-])cc2)cc1
→ -11, ·, -20, 2160, ·, ·, ·
- CS(=O)(=O)NCC(c1cccnc1)N1CCN(c2ccc(F)cc2)CC1 (stereo unspecified)
→ 6, 2, -70, 3560, -13, -7, 7
- COc1ccc2nc(/C(C#N)=C\c3ccc(C(=O)O)cc3)[nH]c2c1
→ -4, 20, 2, 2968, 4.1, 2, 10
- CN(C)CCCNC(=O)c1ccccn1
→ -1, 3, -11, 16671*, 1.0, 1, 13
- CC1Cc2ccccc2N1S(=O)(=O)c1cccc(C(=O)NC2CC2)c1 (stereo unspecified)
→ -1, 1, -8, 2649, 8.7, -10, 1
- Cc1ccc(-n2ncc3c(SCC(=O)NNC(=O)c4ccco4)ncnc32)cc1
→ -4, 7, -47, 4092, 3.7, 8, 0
- CCc1ccc2c(CN3CCN(S(=O)(=O)c4cccs4)CC3)cc(=O)oc2c1
→ 6, 8, -3, 2466, 3.9, 3, 4
- O=P(N1CC1)(N1CC1)N1CCc2ccccc21
→ ·, 7, -29, 3012, 8.2, 0, 8
- CCSC1=C(C#N)C(c2cccc(OC)c2)CC(=O)N1 (stereo unspecified)
→ 3, ·, -28, 5068, -0.4, -5, ·
- COc1ccccc1N1C[C@@H]2C[C@@H](c3ccco3)N3CCC[C@@]23C1=O
→ -5, 11, 0, 4584, 4.1, 9, 8
- CN(C)C(=O)c1cc(S(=O)(=O)N(C)C)c(Cl)cc1N1CCCC1
→ -8, 7, -19, 11086, 3.9, 2, 7
- Cc1cc(C)cc(OCC(=O)OC(C)C(=O)Nc2ccc(Cl)cn2)c1 (stereo unspecified)
→ -9, 2, -10, 6080, 4.3, 1, -1
- C#CCNc1nc(CC)nc2c1nnn2Cc1ccccc1F
→ -8, ·, 11, 4644, 2.8, 3, ·
- Cc1ccccc1C(=O)OCC(=O)NCc1ccco1
→ ·, -2, 1, 3244, 2.9, 2, 2
- CC(=O)CC(c1ccccc1)S(=O)(=O)c1ccc(C)cc1 (stereo unspecified)
→ -2, 7, -22, 12157, 7.1, 1, 5
- COc1ccc(OC)c(NC(=O)CCN2C(=O)c3ccccc3C2=O)c1
→ 12, -3, -19, 3373, 4.4, 5, 2
- Cc1ccc(CNCCCSc2nc(C)cc(C)n2)cc1
→ 11, 18, -8, 3625, 8.1, 7, 2
- COc1ccc(-c2c[n+]3c(n2-c2ccc(C)cc2)CCCCC3)cc1
→ 13, 16, -20, ·, -3.0, 0, 22
- COc1cc2c(cc1OC)CN(c1ccc(C(N)=O)cc1[N+](=O)[O-])CC2
→ -13, 5, -6, 3714, 1.0, 0, 0
- COCCNC(=S)N/N=C(\C)c1ccc2cc(OC)ccc2c1
→ -1, ·, 0, 2366, ·, ·, ·
- Clc1ccccc1CSc1nnc(-c2ccco2)c(-c2ccco2)n1
→ 3, 4, -34, 7303, 8.0, 63, 1
- COc1ccc(-n2nnnc2SCC(=O)Nc2ccc3c(c2)OCCO3)cc1OC
→ -4, 6, -16, 9504, -0.2, 6, 0
- CC(C)C[C@H](NC(=O)N1CC(=O)Nc2ccccc21)C(=O)N1CCC[C@H]1C(=O)O
→ -7, ·, -38, 6016, 2.0, -4, ·
- O=C(CCn1nnc2ccccc21)Nc1nnc(COc2ccc(F)cc2)s1
→ 1, 5, -13, 21872*, 4.5, -3, 14
- NS(=O)(=O)c1ccc(CCNC(=O)Cc2ccc(Cl)cc2)cc1
→ -2, 5, -15, 3951, 4.7, 11, 0
- Clc1cccc2c3c([nH]c12)CCNC3
→ 2, 9, -24, 3832, 2.7, 15, 16
- CCNC(=S)N1C2CCC1CC(NC(=O)Nc1ccc(C(=O)OCC)cc1)C2 (stereo unspecified)
→ 3, 1, -34, 4114, 1.0, 7, 11
- COc1ccc(N(C(=O)c2ccco2)C(C(=O)NC2CCCC2)c2ccc(N(C)C)cc2)cc1 (stereo unspecified)
→ 4, -11, -9, 2952, -2.6, -6, 9
- COc1ccc(NC(=O)C2CCCN(S(=O)(=O)c3cccnc3)C2)cc1OC (stereo unspecified)
→ -23, -3, 0, 3607, 1.1, 5, 3
- O=C(COC(=O)Cc1ccc(Cl)cc1)Nc1ccccc1-c1ccccc1
→ -3, -4, -7, 2028, -0.3, -18, -5
- O=C(CSC1=NCCN1)Nc1ccccc1[N+](=O)[O-]
→ -4, 2, 2, 4446, 1.6, 5, 14
- COc1ccc(N2C(=O)C(Cl)=C(N3CCCC(C)C3)C2=O)cc1 (stereo unspecified)
→ 3, 19, -8, 2929, 2.0, 4, 9
- N#C/C(=C\c1ccc(O)c(O)c1)C(=O)N1CCCC1
→ 4, 12, -14, 4023, 4.9, 7, 12
- O=C(COC(=O)C1CC2C=CC1C2)Nc1ccccc1F (stereo unspecified)
→ 3, -7, -21, 4114, 3.4, 2, 5
- CCOC(=O)c1c(C)[nH]c(C(=O)CSc2ccc(Cl)cc2)c1C
→ 0, 4, -90, 16362*, 7.5, -1, 5
- CCOc1ccc(CNC(=S)N/N=C/c2ccc(OC)c(OC)c2)cc1
→ -17, ·, -8, 8333, ·, ·, ·
- Cc1noc(/C=C/N(C)C)c1S(=O)(=O)N1CCCC(C(=O)N2CCCCC2)C1 (stereo unspecified)
→ -6, 5, -10, 6722, -11, -5, 1
- Cc1cc(C)c[n+](C2=C([O-])c3ccccc3C(=O)/C2=N\S(=O)(=O)c2cccs2)c1
→ 0, 8, -9, 2665, -0.7, -3, 0

Whole records as entered above:
Cc1ccc(-n2ncc3c(SCC(=O)NNC(=O)c4ccco4)ncnc32)cc1 across the screens: BJeLR viability = -4; Mtb hypoxia inh = 7; PrP UTR inh = -47; Bead autofluor = 4092; RN4220 kill = 3.7; ugtP null kill = 8; Mtb hypoxia inh growth = 0
O=C(COC(=O)Cc1ccc(Cl)cc1)Nc1ccccc1-c1ccccc1 across the screens: BJeLR viability = -3; Mtb hypoxia inh = -4; PrP UTR inh = -7; Bead autofluor = 2028; RN4220 kill = -0.3; ugtP null kill = -18; Mtb hypoxia inh growth = -5

(further entries)
Every second line gives: BJeLR viability, Mtb hypoxia inh, PrP UTR inh, Bead autofluor, RN4220 kill, ugtP null kill, Mtb hypoxia inh growth
- O=S(=O)(NCc1ccccn1)c1cccc2nsnc12
→ 12, ·, -11, 6493, 1.7, -2, ·
- N#CCC(=O)Nc1ccc(C(=O)OCC(=O)N(Cc2ccccc2)C2CCS(=O)(=O)C2)cc1 (stereo unspecified)
→ 5, 9, -12, 4470, 0.2, 0, 2
- NC(=NOC(=O)c1ccccc1Cl)c1cccnc1
→ ·, 4, ·, ·, 5.0, 2, 8
- NC(=NOC(=O)c1ccc2ccccc2c1)c1ccccn1
→ ·, 7, ·, ·, 7.2, -1, 2
- CCOc1cc(C=NNC(N)=O)cc(Br)c1OC(C)C
→ ·, 8, ·, ·, 3.2, -3, 2
- COc1ccc(N(C)C(=O)C2CCCN2S(=O)(=O)c2cccc3nsnc23)cc1 (stereo unspecified)
→ -8, -7, -8, 5698, -4.0, -7, -10
- O=C(Cn1cnc2ccccc2c1=O)NCC(=O)N1CCN(Cc2ccc3c(c2)OCO3)CC1
→ ·, ·, -12, 5720, -1.9, -2, ·
- O=C(CCNC(=O)N1CC(=O)Nc2ccccc21)Nc1ccc(Br)cc1F
→ 3, -4, -18, 6080, 3.8, 6, 5
- CC(=O)N/C(N)=N/c1nc2cc(C)ccc2o1
→ -14, 4, -78, 6209, 2.8, 4, -3
- COc1ccc(OC)c(/C=C/c2ccc3cccc(O)c3n2)c1
→ 22, ·, 13, 2701, ·, ·, ·
- Cc1cc(=O)oc2ccc(OCC(=O)NCc3ccco3)cc12
→ 5, 18, -26, 9034, 4.0, 10, 12
- COc1ccc(S(=O)(=O)N2CCN(C/C=C/c3ccccc3)CC2)cc1F
→ 1, ·, -11, 5566, ·, ·, ·
- CC(=O)c1ccc(OCc2cc(C(=O)N(C)C(C)c3ccon3)no2)cc1 (stereo unspecified)
→ -3, 13, -15, 5018, 0.7, 14, -3
- CCc1ccccc1NC(=O)CN(C)C(=O)COC(=O)c1cccnc1Cl
→ ·, -2, -19, 4045, -0.4, -5, 7
- CCOc1ccc(S(=O)(=O)N2CCN(C(=O)c3cc(C4CC4)nn3-c3ccccc3)CC2)cc1
→ ·, -10, -35, 5255, -0.3, 3, 0
- Cc1cccc(C(=O)Nc2cccc(C(=O)N/N=C/c3ccc4c(c3)OCO4)c2)c1
→ -3, ·, -63, 4182, ·, ·, ·
- O=C(O)CNC(=O)c1ccc(NC(=O)/C(=C/c2ccccc2)NC(=O)c2ccco2)cc1
→ 8, 1, -2, 3729, 2.3, 6, -4
- COC(CNC(=O)CN1C(=O)COc2ccc(S(=O)(=O)N3CCOCC3)cc21)OC
→ 1, 3, -7, 5252, 2.1, 4, 17
- O=C1OCCN1C(=O)[C@H]1[C@H](c2ccccc2)C(c2cccc(Cl)c2)=NN1c1ccc(Br)cc1
→ ·, 2, 6, 2733, 6.0, 21, -2
- O=C(NCCc1cccs1)C1CC(c2ccccc2[N+](=O)[O-])=NO1 (stereo unspecified)
→ -8, 9, -84, 4319, 5.2, 2, 18

Among those listed so far, 5 have a cyano group:
Every second line gives: BJeLR viability, Mtb hypoxia inh, PrP UTR inh, Bead autofluor, RN4220 kill, ugtP null kill, Mtb hypoxia inh growth
- CCOc1ccc(-c2nc3n(c(=O)c2C#N)CCS3)cc1
→ -6, 16, -5, 2722, 2.1, 10, 9
- COc1ccc2nc(/C(C#N)=C\c3ccc(C(=O)O)cc3)[nH]c2c1
→ -4, 20, 2, 2968, 4.1, 2, 10
- CCSC1=C(C#N)C(c2cccc(OC)c2)CC(=O)N1 (stereo unspecified)
→ 3, ·, -28, 5068, -0.4, -5, ·
- N#C/C(=C\c1ccc(O)c(O)c1)C(=O)N1CCCC1
→ 4, 12, -14, 4023, 4.9, 7, 12
- N#CCC(=O)Nc1ccc(C(=O)OCC(=O)N(Cc2ccccc2)C2CCS(=O)(=O)C2)cc1 (stereo unspecified)
→ 5, 9, -12, 4470, 0.2, 0, 2

Other entries
Every second line gives: BJeLR viability, Mtb hypoxia inh, PrP UTR inh, Bead autofluor, RN4220 kill, ugtP null kill, Mtb hypoxia inh growth
- Cc1cccc(C2C3C(=O)N(Cc4ccccc4)C(=O)C3[C@]3(Cc4ccc(Cl)cc4)C(=O)N(c4cccc(Cl)c4)C(=O)N23)c1 (stereo partly specified)
→ ·, 9, ·, ·, 8.8, 6, 0
- Cc1cc(C(=O)Oc2cccnc2)ccc1[N+](=O)[O-]
→ -2, 3, -10, 2429, -0.1, -3, 10
- COc1ccc(CSc2nnnn2C)cc1[N+](=O)[O-]
→ 3, 0, 6, 4062, 4.0, 1, 4
- COc1cc(NC(=O)C(C)Oc2ccccc2)c(C(=O)O)cc1OC (stereo unspecified)
→ 3, 7, -36, 10188, 8.5, -4, 7
- Cc1cc(CN(C)C(=O)c2cc(COc3ccc(F)cc3Cl)on2)n[nH]1
→ 9, -2, -62, 4335, -1.0, -16, 5
- Cc1ccc(NC(=O)NC2CCCCCCC2)cc1
→ ·, ·, -86, 6387, 0.2, -2, ·
- O=C(Nc1cccc(S(=O)(=O)N2CCCCC2)c1)c1cnccn1
→ -10, 8, -17, 2618, 2.4, 5, 8
- CC(=O)c1ccc(N2CCN(C(=O)CCc3ccccc3)CC2)cc1
→ 7, 11, -18, 3015, 2.7, 13, 7
- COc1ccc(NC(=O)c2cc(S(=O)(=O)N3CCCCC3)ccc2OC)cc1
→ 5, 1, -15, 5832, -2.9, 3, -4
- C=CCN(C(=O)CN1CCCCC1)c1nc(-c2ccccc2)cs1
→ 5, -9, -25, 6310, -1.2, 9, -9
- CC(C)Oc1ccc(C(=O)Nc2nnc(C3=COCCO3)o2)cc1
→ 4, -1, -19, 5158, 10, 1, 5
- CCOc1ccc(NS(=O)(=O)c2ccc(OC)c(NC(=O)c3ccc4c(c3)OCCO4)c2)cc1
→ 8, -7, -18, 9818, 7.2, 25, -1
- O=C(NCCN1CCOCC1)c1cc(Cl)ccc1Cl
→ -1, -2, -18, 4107, 3.6, 4, -2
- C=CCN1CCN(C(c2ccc(Cl)cc2)c2nnnn2CCc2ccc(OC)c(OC)c2)CC1 (stereo unspecified)
→ -7, ·, -9, 3173, 2.4, 1, ·

Not a hit list. Share with any hit: about 4%.
